D2 ag – human D2 receptor agonism in beta-arrestin assay; P14416; DiscoveRx PathHunter D2 beta-arrestin, luminescence, 90 min; 100% = 57 uM dopamine signal; activation, % (no concentration beside the values); hit rate 0.084% among 360,000; AID 624465; in the data active = activation above about 40%; inconclusive = about 15% to 40%; inactive = below about 15%; further: compound concentration not given in the record; the text of the record calls up to 30% inactive
Target sequence (P14416 whole entry, looked up): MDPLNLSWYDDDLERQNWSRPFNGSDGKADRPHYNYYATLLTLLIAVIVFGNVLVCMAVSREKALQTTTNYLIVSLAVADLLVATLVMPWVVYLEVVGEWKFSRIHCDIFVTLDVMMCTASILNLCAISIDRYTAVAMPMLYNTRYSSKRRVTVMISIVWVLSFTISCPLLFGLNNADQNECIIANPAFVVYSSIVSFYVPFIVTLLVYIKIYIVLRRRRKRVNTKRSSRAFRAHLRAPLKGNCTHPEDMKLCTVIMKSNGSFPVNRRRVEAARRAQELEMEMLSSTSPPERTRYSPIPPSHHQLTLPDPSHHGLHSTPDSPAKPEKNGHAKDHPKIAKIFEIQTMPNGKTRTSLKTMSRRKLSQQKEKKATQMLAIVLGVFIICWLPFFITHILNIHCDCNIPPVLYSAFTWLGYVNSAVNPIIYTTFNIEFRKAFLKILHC
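DiscoveRx PathHunter D2 beta-arrestin cells (2,100/well) attached overnight, then compound-stimulated 90 min at 37 C in HBSS/10 mM HEPES/0.1% Tween-20 buffer; beta-galactosidase complementation read by luminescence after 1 h at ambient temperature. Dopamine 57 uM final (EC100) as control.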
Sfp inh – Sfp phosphopantetheinyl transferase inhibition; Q9F4F7; Biochemical Sfp PPTase activity, qHTS; Potency, µM, without a hit: max response, negative = inhibition, actives largely listed as inhibitors; hit rate 3.5% among 310,000; AID 1490; active means well fitted inhibition curve with a large enough effect; inconclusive means small, poorly fitted or top-dose-only effect, or another doubt; inactive means no such curve, though single readings can be large or run the other way;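 further: the enzyme is Sfp with the accession as filed and its product quenches rhodamine fluorescence; potency means the concentration at half of the fitted maximal effect; 0% = enzyme reaction without inhibitor and -100% = no enzyme wells; top concentration of the series not given in the record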
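With Hepes-Na pH 7.6 buffer containing 10 mM MgCl2, Sfp (15 nM) modified BHQ-2-YbbR (12.5 uM) using rhodamine-CoA (5 uM). Two reads 30 minutes apart at 525/598 nm yielded each well's rate.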
Menin MLL FP FL – displaces fluorescein MLL peptide from human menin; Fluorescence polarization, fluorescein-MLL peptide displacement from menin; FP activity change, % at 61.4 µM; 290,000 tested, under 10 active; AID 1766; inconclusive = falling polarisation curve, or a change in total fluorescence; inactive = total fluorescence flat and polarisation flat or rising; no compound was filed as active; the % refers to the polarisation; negative = inhibition;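 further: % of control where 0% means no effect; inhibitors lower the polarisation; unlabelled MLL peptide was the positive control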
ClpP mod – qHTS Assay for Activators of ClpP | ATP-dependent Clp protease proteolytic subunit (Bacillus subtilis (strain 168)), P80244 | purified B. subtilis ClpP, FRET peptide cleavage, 20 min | Potency, µM (highest dose often 57.5 µM), inactives show top-dose activity change, negative = active | hit rate 1.9% among 340,000; active = well fitted falling curve with a large enough effect; inconclusive = small, poorly fitted or top-dose-only effect; inactive = no such curve, though single readings can be large or run the other way; further: potency means the concentration at half of the fitted maximal effect; the source files actives as falling curves though it sought activators and does not explain the sign; nearly all actives have a fitted effect of over 65% in size; many hits overshoot -100%
Target sequence (P80244 whole entry, looked up): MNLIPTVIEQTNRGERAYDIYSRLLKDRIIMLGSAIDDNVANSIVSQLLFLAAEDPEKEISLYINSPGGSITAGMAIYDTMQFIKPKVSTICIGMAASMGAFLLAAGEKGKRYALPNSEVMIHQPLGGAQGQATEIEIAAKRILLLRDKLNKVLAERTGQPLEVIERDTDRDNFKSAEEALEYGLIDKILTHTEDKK
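FRET quenching reversal measured ClpP activation: 10 microg/mL B. subtilis ClpP at pH 8 with the FRET-FV decapeptide, read at 430 nm after 320 nm excitation. The 20-min minus 0-min signal was scaled between DMSO/no-enzyme wells and ADEP (5.8 microM final).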
gsp ag – activates gsp, the McCune-Albright syndrome mutation | gsp mutant cells, cAMP HTRF, 30 min; control for the full effect not named in the record | Potency, µM (series often up to 76.9 µM), without a hit: at the highest dose activation (cAMP increase), most hits filed as activators | hit rate 0.13% among 340,000; active = well fitted activation curve with a large enough effect; inconclusive = small, poorly fitted or top-dose-only effect, or another doubt; inactive = no such curve, though single readings can be large or run the other way; cell line not stated here;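 further: phosphodiesterase inhibitor Ro 20-1724 added with compounds to block cAMP breakdown; potency means the concentration at half of the fitted maximal effect; nearly all actives have a fitted effect of over 60% in size; about a fifth of the inactives were tested at one dose only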
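Cells in DMEM/10% FBS with G418 were pretreated with compounds in DMSO plus […] (300 uM stock) for 30 min at 37C. cAMP was measured by HTRF (cAMP-d2 plus anti-cAMP antibody-K) after 30 min at room temperature.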
PINK1 modulator – modulators of PINK1 expression. AID 624263. Potency, µM (highest dose often 76.6 µM), for inactives: at the top dose activation (PINK1 increase), most hits filed as activators. hit rate 0.2% among 410,000. PINK1 immunofluorescence, high-content cytometry, 24 h; active = well fitted activation curve with a large enough effect; inconclusive = small, poorly fitted or top-dose-only effect; inactive = flat fitted curve, though single readings scatter; cell line not stated here;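 further: potency means the concentration at half of the fitted maximal effect; % of control where 0% means no effect; nearly all actives have a fitted effect of over 65% in size; a mitochondrial uncoupler was the plate control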
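Fluorescence from anti-PINK1 antibody, together with nuclear and cell stains, was scanned on a laser-scanning cytometer. Before staining, stable-line cells were incubated 24 hours with compounds at 5 concentrations; primary antibody 12 h at 10 degrees C.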
gsp antagonist – antagonists of gsp mutant (McCune-Albright syndrome). hit rate 0.4% among 340,000. Potency, µM (series often up to 76.9 µM), inactives show at the highest dose activity change, negative = inhibition, most hits filed as inhibitors. gsp-mutant cells, cAMP HTRF, 30 min; control for the full effect not named in the record; active = falling curve of any shape with a large fitted effect; inconclusive = falling curve, mostly with a smaller effect; inactive = flat or rising curve; cell line not stated here;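 further: intracellular cAMP measured with PDE inhibitor Ro 20-1724 present during compound exposure; potency means the concentration at half of the fitted maximal effect; on the % scale 0 is the no-effect control and ±100 the full control effect; nearly all actives have a fitted effect of over 65% in size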
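G418-selected cells were plated in DMEM/10% FBS for 16-24 h at 37C, then treated with compounds plus the PDE inhibitor […] (300 uM solution added) for 30 min at 37C. Intracellular cAMP was measured by HTRF after 30 min lysis at room temperature.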
Numbers without * were called inactive; ? = inconclusive; nt = not tested or not shown; [ ] = remark or other dose. The order is random. About 5.1% of those tested had a hit in this group.

SMILES | D2 ag | Sfp inh | Menin MLL FP FL | ClpP mod | gsp ag | PINK1 modulator | gsp antagonist
O=C(CSc1n[nH]c(=O)[nH]c1=O)NC1CCCCC1 | 0.9 | -3.8% | 8.4 | -0.6% | -3.1% | -0.8% | 11.2%
Cc1ccc(NC(=O)CNC(=O)c2sc3ccccc3c2Cl)nc1 | -6.5 | nt | nt | -0.1% | -7.3%[15.4 µM] | 0.6% | 6.8%
Cc1ccc(NC(=O)CS(=O)(=O)c2c[nH]c3ccccc23)c(C)c1 | -1.8 | 12.2% | -0.6 | 0.6% | -15.4% | 1.1% | -4.8%
CC(=O)n1cc([C@@H]2C=C(C(=O)Nc3ccccc3)O[C@H](OCc3ccc(CO)cc3)C2)c2ccccc21 | 5.5 | -1.6% | 15.3 | -1.7% | 13.4% | -1.1% | -17.8%
O=C(OCC(=O)c1c[nH]c2ccccc12)c1ccc(OC(F)F)cc1 | -4.2 | nt | nt | -4.2% | -12.5% | 4.9% | nt
COc1ccccc1N(Cc1cc(=O)[nH]c2ccccc12)C(=O)C(C)C | 2.1 | 7.5% | 1.2 | -12.8% | -8.5% | 0.4% | -1.5%
Cc1nc(C)n(C(C)CNS(=O)(=O)c2ccc(C)c(C)c2)n1 (stereo unspecified) | 4.7 | 13.6% | -0.6 | nt | 28.6% | 0.7% | 5.4%
Cc1cccc(N(Cc2ccccc2)C(=O)c2ccc(F)c(S(=O)(=O)N3CCOCC3)c2)c1 | 7.7 | nt | nt | -1.3% | -1.6% | 2.3% | -33.3%
CCCS(=O)(=O)N1CCCC(C(=O)NCCCN(C)c2ccccc2)C1 (stereo unspecified) | -3.5 | 6.8% | 3.0 | -1.2% | 0.0% | 0.6% | -6.6%
O=C(CSc1nnc(CNC(=O)c2cccs2)o1)Nc1ccccc1 | -4.4 | 22.7% | -0.5 | nt | 19.7%[15.4 µM] | 0.6% | 3.1%
COc1ccc(-c2csc(Nc3ccc(S(=O)(=O)Nc4cc(C)on4)cc3)n2)cc1C | -0.9 | -27.1% | 0.4 | -4.8% | 12.6% | 1.2% | ?
O=C(N/N=C/C1=Cc2ccccc2OC1)c1ccncc1 | 4.4 | 8.3% | 1.2 | nt | 21.5%[15.4 µM] | 4.2% | -11.1%
O=C(CN1C(=O)CCSc2ccccc21)NC1CCCCC1 | -2.7 | 10.0% | 0.1 | 2.7% | -13.9% | -1.5% | 3.7%
COc1ccc(NC(=O)c2cc(-c3cc(Cl)ccc3OC)n[nH]2)c(C)c1 | 3.4 | nt | nt | -1.1% | nt | 1.2% | nt
C[N+]1(CC(=O)OCCCc2ccccc2)CCCCC1 | 1.0 | 20.4% | -0.4 | 1.2% | 9.7% | -0.4% | 3.1%
O=C1c2cccc3c([N+](=O)[O-])ccc(c23)C(=O)N1O | 41.7* | -20.7% | ? | 0.8% | 17.7% | 15.1% | ?
Cc1ccc2c3c([nH]c2c1C)-c1nonc1CC3 | -0.7 | 21.8% | 0.7 | -1.1% | 24.5% | -1.4% | -7.3%
O=C(NCCCN1CCCC1)C1CCC(=O)N1C1CCCCC1 (stereo unspecified) | 1.2 | 3.9% | 3.3 | -1.9% | -3.3% | nt | 0.6%
Cc1ccc(CCNC(=O)CNC(=S)N(Cc2ccccc2)Cc2cccnc2)cc1 | -2.4 | 23.0% | -0.1 | nt | -9.8%[15.4 µM] | 1.5% | -20.6%
NC(=O)NC(CC(=O)NCCc1ccc(S(N)(=O)=O)cc1)c1ccccc1Cl (stereo unspecified) | -2.9 | 12.5% | 0.4 | 0.1% | -27.7% | 0.6% | 7.2%
COc1ccc(OC)c(S(=O)(=O)Nc2cc3c4c(c2)CCC(=O)N4CCC3)c1 | -3.2 | nt | nt | 0.9% | ? | 3.0% | -5.1%
CCOC(=O)C(C)Oc1cccc2c(=O)n(CC(=O)NCCc3ccccc3)ccc12 (stereo unspecified) | -6.9 | 14.5% | 1.1 | -13.7% | ? | 5.1% | -7.2%
Cc1nc2c(OCCOc3ccc(F)cc3)cccn2c1N(C)C(=O)CCC1CCCC1 | 1.8 | nt | nt | -4.1% | nt | ? | nt
O=C(N[C@@H](Cc1ccccc1)C(=O)N1CCN(S(=O)(=O)c2ccc(F)cc2)CC1)c1ccco1 | -1.9 | nt | nt | 37.7% | 0.0% | 2.8% | 10.3%
OC(COc1ccccc1)CN1CCCC1 (stereo unspecified) | -4.6 | -9.1% | 0.4 | -0.2% | -15.5% | 0.8% | 24.6%
OCCCNC(=S)Nc1ccc2nc(-c3ccccn3)c(-c3ccccn3)nc2c1 | 6.1 | -12.8% | -20.8 | -15.6% | ? | nt | 0.2%
[O-][N+]12CCN(CC1)c1ccccc12 | -1.2 | 14.7% | 3.0 | -1.5% | -7.6% | nt | 8.0%
Cn1cnc2c(cnn2C)c1=O | -1.1 | nt | nt | nt | 3.2% | -1.6% | 8.1%
CCN(c1ccccc1)S(=O)(=O)c1ccc(OC)c(NC(=O)c2ccc(=O)[nH]c2)c1 | -1.9 | nt | nt | -3.4% | -23.1%[15.4 µM] | 4.4% | 3.4%
CC(Sc1nncs1)C(=O)Nc1ccc2c(c1)OCO2 (stereo unspecified) | -1.6 | 2.6% | -0.5 | nt | -8.2%[15.4 µM] | -1.3% | 4.5%
CCOC(=O)Cn1cnc2sc3c(c2c1=O)CCC3 | -3.4 | 4.6% | 6.5 | -1.8% | -21.3% | 0.2% | 2.9%
COc1ccccc1C(=O)Nc1ccnn1C1CCN(Cc2ccc3nonc3c2)CC1 | -5.6 | 4.2% | 0.7 | -0.5% | -21.9% | 3.3% | -13.9%
O=C(Nc1ccccc1)N1CCCN(c2c(Cl)cncc2Cl)CC1 | 2.8 | 2.1% | -3.9 | -23.6% | 10.6%[15.4 µM] | -0.3% | -14.6%
c1ccc(-[n+]2nc(Nc3cccc4ccccc34)sc2-c2c3ccccc3cc3ccccc23)cc1 | -5.7 | nt | nt | -0.2% | nt | 7.6% | -0.3%
CC(=O)c1ccc(OCCCC(=O)Nc2ccc3c(c2)OCCO3)cc1 | 3.0 | nt | nt | -0.9% | -0.5% | 0.4% | -1.6%
O=C(c1c(F)cccc1F)N1CCN(c2ccccc2F)CC1 | 0.2 | -10.5% | -0.7 | -3.4% | 9.0% | -1.8% | -1.3%
O=C(O)COc1ccccc1/C=N/NC(=O)c1ccc(F)cc1 | -4.4 | -29.1% | -6.8 | -2.6% | 1.1% | 0.6% | 0.5%
Cc1ccc(CNc2nc(N)c([N+](=O)[O-])c(NCc3ccccc3)n2)cc1 | -4.2 | 6.0% | nt | 0.9% | 1.9%[15.4 µM] | -0.9% | 22.2%
O=C(Cc1ccccc1)N[C@H](c1ccccc1)P(=O)(O)CO | -3.3 | 10.0% | -3.6 | -0.4% | -53.0%[inhibitor] | 0.0% | 11.3%
CC(C)(C)c1cc(C(=O)N/N=C/c2ccccn2)n[nH]1 | 5.1 | -19.9% | 0.1 | -3.5% | 3.9% | -0.8% | -2.3%
O=C(/C=C/c1ccc([N+](=O)[O-])cc1)NCCOc1ccc(F)cc1 | -0.1 | 1.3% | 0.5 | -0.7% | -34.1%[inhibitor] | -0.4% | -7.0%
CCOC(=O)C1Cc2c([nH]c3ccccc23)CN1 (stereo unspecified) | -1.0 | -3.8% | 2.3 | -14.6% | 21.4% | 1.2% | 8.1%
Cc1ccc(Nc2nc(-c3ccncc3)nc3ccccc23)cc1 | -1.7 | 7.1% | 2.1 | nt | 0.0%[15.4 µM] | 7.2% | -2.9%
Cc1cc(C(=O)N/N=C2\CCCC(=O)C2)c2ccccc2n1 | -8.6 | 6.7% | -10.2 | -0.8% | -7.4% | 1.6% | 4.7%
CC(C)(C)C1CCCCC1NC(=O)c1ccncc1 (stereo unspecified) | -3.2 | 7.0% | 2.4 | nt | -36.2%[inhibitor] | 1.4% | 4.8%
NC(=O)CSc1nnc(C2CC2)n1-c1ccccc1 | 0.9 | 12.1% | 3.1 | -1.1% | ? | -0.2% | -10.3%
COc1ccc2[nH]c(=O)c(CN(C(=O)C(C)C)c3ccccc3OC)cc2c1 | 0.9 | 14.2% | -1.2 | 1.3% | 6.3%[15.4 µM] | 1.6% | -1.3%
CN(C)S(=O)(=O)N1CCN(C(=O)N2CCCCC2)CC1 | 0.2 | 21.5% | 0.5 | -1.7% | 24.1% | 5.0%[38.3 µM] | 0.1%
O=C(O)CC(Cc1ccccc1)C(=O)NCC12CC3CC(CC(C3)C1)C2 (stereo unspecified) | -5.0 | 1.5% | 3.7 | nt | -45.3%[inhibitor] | -3.2% | -1.3%
CC1CCCC(C)N1C(=O)COC(=O)CN1C(=O)c2ccccc2C1=O (stereo unspecified) | -4.9 | nt | nt | -0.1% | ? | -1.1% | 4.7%
Cc1cc(NC(=O)CCC(=O)N(c2ccccc2)C(C(=O)NC(C)(C)C)c2ccccc2Cl)no1 (stereo unspecified) | -2.0 | 15.3% | -4.0 | -5.2% | -1.6%[15.4 µM] | 1.5% | -22.5%
Cc1nc2sc(C(c3ccc(Cl)cc3)N3CCOCC3)c(O)n2n1 (stereo unspecified) | -3.3 | -4.2% | 4.9 | 1.1% | -26.4% | -1.4% | 2.5%
CCOc1ccc(C(=O)NCC(=O)NCC(c2ccccc2OC)N2CCCC2)cc1 (stereo unspecified) | -0.3 | nt | nt | -4.7% | -1.1% | 2.3% | 4.6%
O=C(NNC(=S)Nc1ccccc1C(F)(F)F)C1CC1 | -0.6 | 2.9% | -2.0 | nt | 5.3% | -0.9% | 5.6%
CC(NC(=O)C1CCCC1)c1ccc(Br)cc1 (stereo unspecified) | -1.3 | 2.9% | 0.9 | -2.0% | 0.7% | -0.3% | 9.3%

Compound activity: PubChem BioAssay, National Center for Advancing Translational Sciences (NCATS)
